Bioassay records (PubChem BioAssay)
Mito fusion act – qHTS Assay for Small Molecule Inhibitors of Mitochondrial Division or Activators of Mitochondrial Fusion; S. cerevisiae fusion-defective mutant growth rescue, CellTiterGlo 48 h; 320,000 compounds, 0.23% hits; AID 485298, 2010; Potency, µM (doses to about 46.1 µM), without a hit: at the highest dose growth rescue (activation), most hits filed as activators;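 further: potency means the concentration at half of the fitted maximal effect; % of control where 0% means no effect; nearly all actives have a fitted effect of over 45% in size; temperature-sensitive fusion mutants such as fzo1-1 at 37 °C on non-fermentable ethanol glycerol medium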
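Read-out: ATP-based luminescence (CellTiterGlo, 10 min ambient) reporting growth of fusion-defective ts yeast after 48 hours at 37C on glycerol/ethanol YPEG medium in the presence of compound.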
TCR activator – Activators of T cell receptors: qHTS campaign. 330,000 tested, under 10 active. AID 504894, 2011. Potency, µM (doses to about 9.22 µM), inactives show at the highest dose activation of IL-2 secretion, usual class: activators. primary human leukocytes, anti-CD3, IL-2 HTRF, 48 h; further: % of control where 0% means no effect
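Readout: HTRF IL-2, Eu-cryptate/d2 antibody pair, 320nm excitation, 665nm emission. Stimulus: a-CD3 beads, no co-stimulation. Cells: primary human leukocytes. Exposure: 48 hr with compound.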
USP2a block – qHTS Assay for Inhibitors of Ubiquitin-specific Protease USP2a Using CHOP2 as the Reporter | 330,000 compounds, 0.01% hits | USP2 core, Ub-CHOP2 coupled fluorogenic reporter, 485/531 | Potency, µM (doses to about 38.3 µM), for the others: at the highest dose activity change, negative = inhibition, actives largely listed as inhibitors;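 further: potency means the concentration at half of the fitted maximal effect; plate controls were DMSO wells for no effect and full inhibition by NEM control for full effect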
Target sequence (O75604 whole entry, looked up): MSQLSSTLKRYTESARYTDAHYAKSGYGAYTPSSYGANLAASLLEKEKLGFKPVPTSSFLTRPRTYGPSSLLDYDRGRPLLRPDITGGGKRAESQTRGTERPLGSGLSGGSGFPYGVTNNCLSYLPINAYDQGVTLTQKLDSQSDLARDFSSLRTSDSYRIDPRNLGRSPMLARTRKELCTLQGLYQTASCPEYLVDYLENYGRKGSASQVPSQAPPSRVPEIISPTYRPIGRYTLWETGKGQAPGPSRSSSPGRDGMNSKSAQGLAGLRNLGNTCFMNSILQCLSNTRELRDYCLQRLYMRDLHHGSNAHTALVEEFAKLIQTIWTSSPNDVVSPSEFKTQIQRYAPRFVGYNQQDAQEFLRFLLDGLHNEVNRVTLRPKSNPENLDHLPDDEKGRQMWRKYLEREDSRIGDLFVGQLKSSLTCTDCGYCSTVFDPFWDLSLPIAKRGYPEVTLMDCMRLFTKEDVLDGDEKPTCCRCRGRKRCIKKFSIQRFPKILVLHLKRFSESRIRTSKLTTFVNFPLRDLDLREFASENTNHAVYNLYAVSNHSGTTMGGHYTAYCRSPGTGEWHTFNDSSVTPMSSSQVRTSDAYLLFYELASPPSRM
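Cell-free coupled assay: 10nM USP2 core preincubated 30min RT with compound in Tris-HCl pH 8.0/CaCl2/CHAPS buffer, then 25nM Ub-CHOP2 and 25nM reporter substrate; fluorescence (Ex 485/Em 531) read after 60min RT, normalized to NEM inhibition, concentration-response curves fitted.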
TSHR antag – Antagonists of the Thyroid Stimulating Hormone Receptor: HTS campaign; 330,000 compounds, 0.2% hits; TSHR-expressing cells, TSH-stimulated cAMP HTRF, 2 h; stronger effect = lower value; Thyrotropin receptor (Homo sapiens), P16473; AID 504810, 2011; activity change, negative = inhibition, % at 11.5 µM;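 active means activity change below a set negative limit, meaning inhibition stronger than a set level, cut at about -70% in these data; inconclusive means activity change between two set negative limits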; further: on the % scale 0 is the no-effect control and ±100 the full control effect
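Antagonism was scored as loss of TSH-driven cAMP in TSHR cells, stimulated with 4nM TSH (EC80) for 2 hours at 37 deg C and detected by homogeneous HTRF competition immunoassay.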
Eya2 phos inh – qHTS Assay for Inhibitors of the Phosphatase Activity of Eya2; 330,000 compounds, 0.006% hits; Potency, µM (doses to about 76.9 µM), inactives show top-dose activity, negative = inhibition, hits mostly inhibitors; recombinant Eya2, OMFP fluorescence dephosphorylation (OMFP is methylfluorescein phosphate); further: potency means the concentration at half of the fitted maximal effect; on the % scale 0 is the no-effect control and ±100 the full control effect
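Eya2 protein (added as 0.2 uM solution) was preincubated with compound for 10 min at ambient temperature in 50 mM HEPES pH 7.5, 50 mM NaCl, 5 uM MgCl2, 0.05% BSA, 1 mM DTT. OMFP (added at 50 uM) then reacted 10 min; fluorescence read at 485/525 nm.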
AT treatment – qHTS Assay for Identifying a Potential Treatment of Ataxia-Telangiectasia; Potency, µM (series often up to 57.5 µM), for inactives: at the highest dose activation, usual class: activators; 320,000 compounds, 0.19% hits; AID 485349, 2010; […] A-T fibroblasts, KAP-1 phosphorylation AlphaLISA; neocarzinostatin DNA damage 30 min before lysis; further: potency means the concentration at half of the fitted maximal effect; % of control where 0% means no effect; nearly all actives have a fitted effect of over 45% in size
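hTERT-immortalized A-T patient fibroblasts ([…]), 500 cells/well in OPTI-MEM, 1% FBS, got compounds for 60 min, then NCS for 30 min at 37C. Lysates were then assayed for phospho-KAP-1 by AlphaLISA (anti-pKAP1 donor, anti-KAP1 acceptor beads), 6 hr at 25C.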
ELG1 DNA repair – qHTS screen for small molecules that inhibit ELG1-dependent DNA repair in human embryonic kidney (HEK293T) cells expressing luciferase-tagged ELG1. HEK293T ELG1-luciferase reporter, luminescence, 16 h; DNA damage induced by 5-fluorouridine. Potency, µM (titrated, usually from 46.1 µM), for inactives: top-dose activity change, negative = inhibition, hits mostly inhibitors. 330,000 compounds, 2.3% hits. AID 504467, 2011; further: potency means the concentration at half of the fitted maximal effect; on the % scale 0 is the no-effect control and ±100 the full control effect; nearly all actives have a fitted effect of over 55% in size
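In this reporter screen, reduction of luminescence relative to DMSO vehicle indicated activity. Compounds and 5-fluorouridine were added together to 2,000 cells per well, incubated for 16 hr at 37 °C, then developed with ONE-Glo.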
TRPV1 agonist – HTS Assay for Compounds that Act as Agonists of the Vanilloid Receptor 1; TRPV1-expressing cells, Fluo-8 calcium influx, agonist mode; activation, % at 8.33 µM; Transient receptor potential cation channel subfamily V member 1 (Homo sapiens), Q8NER1; 320,000 compounds, 0.19% hits; in the data active means activation above about 80%; inconclusive means between about 30% and that limit; further: 0% is about no effect
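Cells expressing TRPV1 were dye-loaded with Fluo-8 and read kinetically: 10 s baseline, 3 min after compound (agonist portion), then 2 min after EC20 capsaicin (allosteric enhancer portion). Calcium-bound dye fluorescence at 480/520 nm.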
* hit, by the source's call; ? = inconclusive; nt = not tested or not shown; & = joins results of further samples; [ ] = dose if it differs, or a comment. Unless noted, the call rests on the fitted dose curve; in most records, active means well fitted curve in the direction sought with a large enough effect; inconclusive means small, poorly fitted or top-dose-only effect, or another doubt; inactive means no such curve, though single readings can be large; an effect the other way counts as inactive or inconclusive.

SMILES	Mito fusion act	TCR activator	USP2a block	TSHR antag	Eya2 phos inh	AT treatment	ELG1 DNA repair	TRPV1 agonist
CCOC(=O)NC(CC(=O)O)c1ccc(OCC)cc1 (stereo not given)	0%	6%	0%	-8	3%	1%	-4%	1
CC(C)COC(=O)Nc1nnc(SCCOc2ccccc2)s1	-2%	-6%	-8%	-6	3%	-1%	-7%	14
CN(C)S(=O)(=O)c1cc(C(=O)Nc2ccn(C)n2)c(Cl)cc1Cl	-1%	2%	-1%	13	-12%	5%	5%	-5
N#C/C(=C/c1cccnc1)c1ccccc1	-3%	-9%	1%	1	18%	-8%	0%	25
CC(C)(C)Cc1nnc(NS(=O)(=O)c2ccc([N+](=O)[O-])cc2)s1	2%	nt	-1%	?	8%	5%	-23%	-5
C=CCn1c(-c2ccc(Cl)cc2)ccc(C#N)c1=O	-3%	-1%	2%	23	5%	9%	-4%	5
Cc1nnnn1-c1cccc(C(=O)O)c1	1%	5%	-2%	9	-24%	3%	11%	0
O=C(NCc1cn(-c2ccccc2)nc1-c1ccccc1)c1cccc([N+](=O)[O-])c1	27%	-6%[46.1 µM]	2%	1	2%	3%	21µM*	?
O=C(CSc1n[nH]c(-c2cccnc2)n1)Nc1ccccc1C(F)(F)F	6%	-1%	-3%	-1	-2%	4%	-10%	0
O=C(N/C(=C/c1ccc(Cl)cc1)C(=O)N1CCOCC1)c1ccccc1	6%	1%	-8%	29	8%	-4%	5%	1
CC1=C(CO)C(=O)OC([C@@H](C)C2CC[C@H]3C4C[C@H]5O[C@]56[C@@H](O)C=CC(=O)[C@]6(C)C4CC[C@]23C)C1 (stereo not given in full)	-40%[inhibitor]	15%	-4%	-39	3%	5%	9.2µM*	-3
CCc1ccc(N(CC(=O)NC(C)C)C(=O)CCC(=O)Nc2ccccn2)cc1	0%	2%	-1%	16	?	-4%	3%	-2
Cc1ccc(-c2onc3ccc(C(=O)O)cc23)cc1	?	-8%	4%	-7	-12%	-1%	?	-1
CCOC(=O)N1CCN(Cc2nc(-c3cccc(Cl)c3)no2)CC1	3%	-2%	0%	-2	-6%	2%	-1%	19
COc1cccc(C(=O)NN/C(C)=C/C(=O)C(F)(F)C(F)(F)C(F)(F)F)c1	0%	3%[46.1 µM]	3%	9	1%	0%	?	2
O=C(CCN1C(=O)c2ccccc2C1=O)N1CCN(C2c3ccccc3-c3ccccc32)CC1	4%	2%	0%	-9	-31%	2%	-12%	15
Cc1c(OCC(=O)OC(C)C)ccc2c3c(c(=O)oc12)CCC3	12%	5%	1%	-6	6%	nt	-13%	1
CC(C)(C)C(=O)OCOC(=O)[C@@H]1N2C(=O)[C@@H](N=CN3CCCCCC3)[C@H]2SC1(C)C	2%	-2%	1%	-4	-6%	7%	8%	3
Cc1ccc(-c2nc3ccccc3[nH]2)cc1NC(=O)c1ccc2c(c1)OCO2	-1%	5%	0%	2	-11%	3%	?	2
CCOC(=O)c1c(C)[nH]c(C)c1S(=O)(=O)NCC1CCN(Cc2ccccc2OC)CC1	-5%	-3%	2%	2	-7%	-5%	5%	3
CN(C)CC/C=C1\c2ccccc2COc2ccccc21	-33%&19%[inhibitor]	15%	6%	-7&-4	5%&-2%	-17%	4%	-3
COc1cccc(CN(C)CC(=O)Nc2cccc(C(F)(F)F)c2)c1OC	-2%	0%	2%	-13	-7%	-1%	?	?
CO[C@H]1/C=C/O[C@@]2(C)Oc3c(C)c(O)c4c(O)c(c5c(c4c3C2=O)NC2(CCN(CC(C)C)CC2)N=5)=NC(=O)/C(C)=C\C=C\[C@H](C)[C@H](O)[C@@H](C)[C@@H](O)[C@@H](C)[C@H](OC(C)=O)[C@@H]1C	nt	4%	nt	nt	nt	nt	nt	nt
COC(=O)c1cc(CSc2nc3ccc(C)cc3[nH]2)oc1C	6%	4%	3%	-18	-2%	9%	?	28
COc1ccc(OCCSc2nnnn2C2CCCCC2)cc1	9%	-2%	-1%	-1	-23%	0%	24%	1
Cc1cc(Cl)ccc1C(=O)C1CCCN(C(=O)c2cscn2)C1 (stereo not given)	3%	-5%	-1%	-3	1%	4%	-10%	11
COc1cccc(-n2c([S-])c(C(=O)Nc3ccc(S(=O)(=O)N4CCOCC4)cc3)[n+]3cc(C(N)=O)ccc23)c1	-3%	-8%	2%	0	24%	1%	7%	-1
CC[N+](CC)(CC)CCC(O)(c1ccccc1)C1CCCCC1 (stereo not given)	-1%	-8%	0%	16	-3%	-9%	2%	-2
COc1ccc(C2=NN(C)C(=NCc3ccccc3)SC2)cc1	1%	0%	1%	1	4%	9%	14%	-1
CSc1ccc(S(=O)(=O)N2CCC(C(=O)Nc3ccc(NC(C)=O)cc3)CC2)cc1	-6%	0%	4%	-5	-12%	0%	-8%	-2

9 structures from above, ordered by molecular weight, high to low.
SMILES	Mito fusion act	TCR activator	USP2a block	TSHR antag	Eya2 phos inh	AT treatment	ELG1 DNA repair	TRPV1 agonist
CO[C@H]1/C=C/O[C@@]2(C)Oc3c(C)c(O)c4c(O)c(c5c(c4c3C2=O)NC2(CCN(CC(C)C)CC2)N=5)=NC(=O)/C(C)=C\C=C\[C@H](C)[C@H](O)[C@@H](C)[C@@H](O)[C@@H](C)[C@H](OC(C)=O)[C@@H]1C	nt	4%	nt	nt	nt	nt	nt	nt
COc1cccc(-n2c([S-])c(C(=O)Nc3ccc(S(=O)(=O)N4CCOCC4)cc3)[n+]3cc(C(N)=O)ccc23)c1	-3%	-8%	2%	0	24%	1%	7%	-1
CCOC(=O)c1c(C)[nH]c(C)c1S(=O)(=O)NCC1CCN(Cc2ccccc2OC)CC1	-5%	-3%	2%	2	-7%	-5%	5%	3
CSc1ccc(S(=O)(=O)N2CCC(C(=O)Nc3ccc(NC(C)=O)cc3)CC2)cc1	-6%	0%	4%	-5	-12%	0%	-8%	-2
Cc1ccc(-c2nc3ccccc3[nH]2)cc1NC(=O)c1ccc2c(c1)OCO2	-1%	5%	0%	2	-11%	3%	?	2
COc1ccc(OCCSc2nnnn2C2CCCCC2)cc1	9%	-2%	-1%	-1	-23%	0%	24%	1
COc1ccc(C2=NN(C)C(=NCc3ccccc3)SC2)cc1	1%	0%	1%	1	4%	9%	14%	-1
COC(=O)c1cc(CSc2nc3ccc(C)cc3[nH]2)oc1C	6%	4%	3%	-18	-2%	9%	?	28
CN(C)CC/C=C1\c2ccccc2COc2ccccc21	-33%&19%[inhibitor]	15%	6%	-7&-4	5%&-2%	-17%	4%	-3

Further results:
SMILES	Mito fusion act	TCR activator	USP2a block	TSHR antag	Eya2 phos inh	AT treatment	ELG1 DNA repair	TRPV1 agonist
CC1(C)S[C@@H]2[C@H](NC(=O)C(NC(=O)N3CCNC3=O)c3ccccc3)C(=O)N2[C@H]1C(=O)O (stereo not given in full)	-11%	-1%	3%	0	-4%	-3%	0%	-2
FC(F)(F)c1cc(-c2ccco2)nc2ncnn12	-6%	0%[46.1 µM]	3%	11	0%	-17%	-6%	-3
Brc1ccc(CSc2ccc3nnc(-c4cccnc4)n3n2)cc1	0%	nt	1%	-7	-6%	4%	-10%	1
CCC(C)(C)NC(=O)CC(c1ccc(OC)cc1)n1cccc1 (stereo not given)	3%	-35%	-1%	-2	4%	-2%	-14%	8
C#C[C@]1(O)CC[C@H]2[C@@H]3CCC4=CC(=O)CC[C@@H]4[C@H]3CC[C@@]21C	nt	-1%	nt	nt	nt	nt	nt	nt
CCc1ccc(Cn2nnc(C(=O)NCc3ccccc3OC)c2N)cc1	-4%	-2%	0%	-4	6%	-7%	9%	nt
Cc1ccc(-c2cc(C(=O)N3CCN(c4ccc(F)cc4)CC3)c3ccccc3n2)o1	-1%	4%	2%	9	3%	2%	0%	0
O=C(/C=C\c1ccco1)Nc1nc(-c2ccccc2)cs1	?	-1%[46.1 µM]	1%	3	0%	nt	?	-1
O=C(NCCCn1ccnc1)c1cc2c(ccc3ccccc32)o1	-3%	0%	3%	27	-7%	2%	?	18
O=CC(O)C1OC(=O)C(O)C1O (stereo not given)	nt	-1%	nt	nt	nt	nt	nt	nt
CN1CCN(C(=S)c2cn(Cc3ccccc3F)c3ccccc23)CC1	0%	-14%	1%	-3	-4%	-2%	26%	25
c1csc(-c2ccn[nH]2)c1	3%	1%	3%	5	5%	1%	?	-2
NCCc1ccn[nH]1	-10%	2%	4%	-8	0%	-14%	18%	-1
CCOc1ccccc1CNC(=O)Cn1ccc2cc(S(=O)(=O)N3CCC(C)CC3)ccc21	4%	5%	0%	12	-1%	7%	-11%	5
O=C(NCc1ccc2c(c1)OCO2)C(=O)NCC1OCCN1S(=O)(=O)c1ccccc1 (stereo not given)	nt	1%	nt	nt	nt	nt	nt	nt
O=C(NC1CCS(=O)(=O)C1)c1c(NC(=O)C2COc3ccccc3O2)sc2c1CCCC2 (stereo not given)	1%	-6%	2%	-10	3%	3%	-21%	5
O=C(N/C(=C\c1ccc([N+](=O)[O-])cc1)C(=O)N1CCOCC1)c1ccccc1	-7%	4%	1%	-1	1%	3%	-1%	-1
Cc1c(C(=O)N2CCCCC2)c(S(=O)(=O)NCCc2ccc(Cl)cc2)c(C)n1C	-1%	-7%	4%	-5	-1%	2%	-1%	-8

The list is partial, so the mix of outcomes need not match the whole.
